# GALR2 ag – GALR2 receptor agonists, primary screen, cell-based | Galanin receptor type 2 (Homo sapiens), O43603 | GALR2-expressing cells, agonist activation read-out | activation, %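 (tested at 5 µM)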 | 0.48% of 140,000 active | AID 803, 2007;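 active = above mean plus 3 SD of all compounds, about 5% in these data, not always enough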;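 note: 0% = vehicle buffer wells and 100% = reference agonist at full effect; tested in CHO reporter cells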
# HSV replic up – enhancers of HSV replication in host cells, fold increase, host cell viability; maximum fold increase; HSV replication augmentation in cells; AID 1956, 2009; 0.005% of 220,000 active;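 active = peak rise of 1.5-fold or more in the series; tested in PC3 cells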;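 note: first round at 10 µM; read as green reporter fluorescence; hits show the peak of a series up to 25 µM; 1 = signal of infected wells without compound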
# Insulin prom inh – inhibitors of insulin promoter-driven GFP, primary screen, imaging, TRM-6 cells (human fetal islet line), eGFP reporter, cell count; AID 1273, 2008; inhibition, % at 2 µM; 0.9% of 130,000 active; reporter expression induced with tamoxifen;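 active = inhibition above the mean plus 3 SD, with well images judged a real hit on visual review, cut at about 60% in these data, passing the limit was not always enough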
# RGS16-Gao HTS – modulators of RGS16 binding to Galphao, primary screen, biochemical, human proteins, multiplexed bead flow cytometry; 0.38% of 220,000 active; Regulator of G-protein signaling 16 (Homo sapiens) + Guanine nucleotide-binding protein …; binding response (% of control), % at 10 µM; bead-based flow cytometry RGS16-Galphao binding, fluorescence; actives lie on both sides;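 active = below 25% or above 175%, edge rows of some plates excepted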;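 note: Galphao activated by GDP with aluminum fluoride before binding; 100% = wells without compound and 0% = beads without RGS; some results beyond the cut were filed as inactive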
# PKD1 kinase inh – inhibitors of human PKD1 kinase, biochemical, fluorescence polarization; 0.056% of 200,000 active; Serine/threonine-protein kinase D1 (Homo sapiens), Q15139; inhibition, %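 (about 10 µM by stock and volumes)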; PKD1 kinase fluorescence polarization assay;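 active = inhibition of 50% or more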;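 note: controls were vehicle for no effect and a reference inhibitor for full effect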
# Target sequence (Q15139 whole entry, looked up): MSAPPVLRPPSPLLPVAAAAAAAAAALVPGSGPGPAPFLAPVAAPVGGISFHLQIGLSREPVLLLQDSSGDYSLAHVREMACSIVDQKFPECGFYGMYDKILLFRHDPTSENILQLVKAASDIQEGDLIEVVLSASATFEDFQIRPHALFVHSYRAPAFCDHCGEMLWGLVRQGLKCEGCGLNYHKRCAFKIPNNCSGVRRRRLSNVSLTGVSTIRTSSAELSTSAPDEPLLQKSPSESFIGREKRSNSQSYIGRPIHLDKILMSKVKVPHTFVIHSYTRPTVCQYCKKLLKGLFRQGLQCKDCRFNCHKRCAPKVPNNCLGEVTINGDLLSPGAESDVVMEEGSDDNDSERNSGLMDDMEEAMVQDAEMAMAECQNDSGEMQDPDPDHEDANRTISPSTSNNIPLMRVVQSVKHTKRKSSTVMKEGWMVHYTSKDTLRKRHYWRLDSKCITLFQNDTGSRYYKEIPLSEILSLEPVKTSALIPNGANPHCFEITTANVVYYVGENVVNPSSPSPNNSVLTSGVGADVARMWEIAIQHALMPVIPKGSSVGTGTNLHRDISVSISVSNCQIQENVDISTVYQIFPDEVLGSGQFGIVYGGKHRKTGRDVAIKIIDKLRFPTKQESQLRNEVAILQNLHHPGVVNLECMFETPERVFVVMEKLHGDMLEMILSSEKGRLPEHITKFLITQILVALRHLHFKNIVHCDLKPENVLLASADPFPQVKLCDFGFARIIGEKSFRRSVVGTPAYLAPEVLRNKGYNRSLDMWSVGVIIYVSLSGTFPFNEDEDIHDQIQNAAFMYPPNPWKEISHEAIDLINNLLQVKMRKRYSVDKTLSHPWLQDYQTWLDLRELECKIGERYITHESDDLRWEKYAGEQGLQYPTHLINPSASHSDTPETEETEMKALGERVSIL
# Insulin prom inh cell count – second read-out of Insulin prom inh, no call of its own (marks repeat the call); normalized cell count, %; measured here: cell count, toxicity; reference of the scale not given here;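 cells exposed to compound for 48 h; stained nuclei by imaging scaled within each plate; lower means fewer cells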
# HSV replic up primary fold – further read-out of HSV replic up, marked with its call; fold increase; compound at 10 µM; measured here: primary screen fold increase 10 uM; tested in PC3 cells;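 GFP signal in the first replicate; 1 = infected wells without compound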
# Numbers without * were called inactive; i = inactive; . = no result given.
SMILES,GALR2 ag,HSV replic up,HSV replic up primary fold,Insulin prom inh,Insulin prom inh cell count,RGS16-Gao HTS,PKD1 kinase inh
CC1(C(=O)O)CCC(C(=O)N2CCCCC2)C1(C)C (configuration not stated),.,i,1,.,.,97,10
CC1CCCCN1C(=O)CCn1c(=S)oc2ccccc21 (configuration not stated),.,i,0.97,.,.,104,.
COCCNC(=S)NNc1cccc(C(=O)O)c1,.,i,0.89,9,78,97,-6
O=C(Cc1ccccc1)Nc1cccc(C(=O)N/N=C/c2ccco2)c1,-1.6,i,0.93,-33,90,105,-7
COc1ccc(-c2noc(CN3CCN(c4ccccc4)CC3)n2)cc1,-1.1,i,0.82,.,.,87,6
COc1cc(/C=C/C(=O)OCC(=O)Nc2cccc(Oc3ccccc3)c2)ccc1O,-0.2,i,0.96,-4,105,157,11
COc1ccc(CNC(=O)C2CCN(S(=O)(=O)N3CCC4(CC3)OCCO4)CC2)c(OC)c1,0.0,i,0.9,50,117,110,-6
CC[C@@H](C)C(NC(=O)OC(C)(C)C)c1cn([C@@H](CCCCNC(=O)OC(C)(C)C)C(=O)N2CCN(C(=O)OC(C)(C)C)CC2)nn1 (some centres not stated),.,i,0.83,.,.,104,8
O=C(c1ccccc1)N1CCN(Cc2ccccc2Br)CC1,-2.1,i,0.91,-55,228,103,0
Cc1[nH]n(-c2ccccc2)c(=O)c1-c1ccccc1,-1.0,i,1,5,69,92,-1
Cc1ccc(N(CCC(=O)NC(C)(C)C)S(=O)(=O)c2ccc(C)cc2)cc1,.,i,1,-40,53,187,4
CCOC(=O)c1c(NC(=O)CCl)sc(C(=O)N(CC)CC)c1C,-1.6,i,0.9,.,.,100,-6
CC(C)C(NS(=O)(=O)c1cccc2nsnc12)C(=O)Nc1nccs1 (configuration not stated),.,i,1,.,.,100,.
COc1ccc(-c2nnc(N)s2)cc1,-0.3,i,0.72,75*,100*,106,-9
Cc1nc2nc3c(cn2n1)C(=O)CC(C)(C)C3,-1.4,i,0.97,.,.,109,1
COc1ccc(/C=N/N=C2\SC(CC(=O)O)C(=O)N2c2ccccc2)cc1 (configuration not stated),-0.6,i,1.1,26,97,100,-13
Cc1ccc2c(c1)CCCN2C(=O)c1ccc2c(c1)OCO2,-1.8,i,1,-94,107,104,-1
COc1ccccc1OCc1ccc(C(=O)NN)o1,.,i,1.1,.,.,104,.
CC(C)(C)OC(=O)C(Cc1ccc(OC(C)(C)C)cc1)NC(=O)CNC(=O)CNC(=O)OCc1ccccc1 (configuration not stated),-0.1,i,0.76,-27,61,67,0
COc1ccc(C2=Nc3ccc(C)cc3C(c3ccccc3)N2CC(=O)NN)cc1 (configuration not stated),.,i,0.9,6,106,112,0
Cn1nnnc1SCC(=O)N1CCN(c2cccc(Cl)c2)CC1,-1.3,i,1,-4,131,102,-1
C=C(C)Cn1c(CCNC(=O)CCC)nc2ccccc21,-0.1,i,0.84,12,135,103,-2
COc1ccc(NS(=O)(=O)c2cccc3cccnc23)cc1,0.0,i,0.8,.,.,106,-2
C#CCSc1nnc(-c2cccc3ccccc23)o1,0.2,i,0.93,-15,120,.,4
Cc1ccc(-c2[nH]nc3c2C(C)C(C#N)=C(N)O3)cc1 (configuration not stated),-0.1,i,0.97,-28,52,63,7

# 4 compounds from above, showing only RGS16-Gao HTS, GALR2 ag and PKD1 kinase inh:
Structure | RGS16-Gao HTS | GALR2 ag | PKD1 kinase inh
C=C(C)Cn1c(CCNC(=O)CCC)nc2ccccc21 | 103 | -0.1 | -2
COc1ccc(NS(=O)(=O)c2cccc3cccnc23)cc1 | 106 | 0.0 | -2
C#CCSc1nnc(-c2cccc3ccccc23)o1 | . | 0.2 | 4
Cc1ccc(-c2[nH]nc3c2C(C)C(C#N)=C(N)O3)cc1 (configuration not stated) | 63 | -0.1 | 7

# Next part.
SMILES,GALR2 ag,HSV replic up,HSV replic up primary fold,Insulin prom inh,Insulin prom inh cell count,RGS16-Gao HTS,PKD1 kinase inh
CCOC(=O)Nc1ccc(OCc2nnc3c4ccccc4c(C)nn23)cc1,.,i,0.98,.,.,97,7
COc1ccc(Br)cc1C(=O)Nc1cccc(-c2nnc(-c3ccco3)o2)c1,1.3,i,1.1,11,114,.,2
COc1ccc2c(c1)c(C(=O)N/N=C/c1cn(C)c3ccccc13)c(C)n2C,.,i,0.96,.,.,101,.
COc1cc2c(cc1OC)CN(C(=O)c1ccc(OC)c(S(=O)(=O)N3CCOCC3)c1)CC2,0.6,i,1,29,112,152,-7
CN1C(=O)NC(c2ccccc2)(C(F)(F)F)S/C1=C(/C#N)c1nnc(N2CCOCC2)n1-c1ccccc1 (configuration not stated),-1.0,i,0.82,0,177,104,-1
c1ccc(CCc2nc(-c3ccncc3)no2)cc1,-1.1,i,0.93,-33,102,102,-6
CCn1c(=O)c2c(O)cc(=O)oc2c2ccccc21,-2.4,i,0.96,-24,177,80,-6
CC12CC(NC(=O)N1c1ccc(C(=O)N3CCN(c4ccc(F)cc4)CC3)cc1)c1ccccc1O2 (configuration not stated),0.8,i,0.92,.,.,99,-11
CCCC(=O)NC(=S)Nc1cccc(Cl)c1N1CCCC1,.,i,0.82,.,.,102,-1
CCOC(=O)C1(CCc2ccccc2)CCN(Cc2ccc(O)cc2)CC1,.,i,0.87,.,.,102,-3
Cc1cccc2cc(C#N)c(SCC(=O)N3CC(=O)Nc4ccccc43)nc12,0.0,i,1,-123,11,99,0
CCOC(=O)N/N=C/c1ccc(N(CC)CC)cc1O,0.1,.,.,-31,122,105,-10
O=C(COc1ccc(/C=N/NC(=O)c2ccc(O)cc2)cc1)Nc1cccc([N+](=O)[O-])c1,.,i,0.98,47,120,93,-2
COc1ccc2cc(CN(CC3CCCO3)S(=O)(=O)c3ccccc3Cl)c(=O)[nH]c2c1 (configuration not stated),-2.7,i,0.92,20,150,102,1
C=C1CCN(C(Cc2ccccc2)C(=O)OC)S(=O)(=O)c2ccc(F)cc21 (configuration not stated),.,i,1,.,.,88,.
Cc1ccc(S(=O)(=O)N2CCN(C(=O)c3ccccn3)CC2)c(C)c1,.,i,0.95,47,88,99,0
O=C(c1ccc(O)cc1)c1ccc(O)cc1O,.,i,0.94,.,.,92,.
Cc1cccc(Cn2c(SCCO)nc3c2c(=O)n(C)c(=O)n3C)c1,1.3,i,0.99,-80,109,106,-20
COc1ccc(O)c(-c2cc(C(F)(F)C(F)F)nc(-c3ccccc3)n2)c1,-2.7,i,0.9,-12,105,103,-6
COc1cccc(-n2cnc3sc(C)cc3c2=O)c1,.,i,0.99,-13,110,102,10
CSc1cccc(NC(=S)Nc2ccc(F)cc2)c1,.,i,0.88,.,.,104,.
COc1ccc(-c2cc(C(=O)Nc3c(C)nn(Cc4ccccc4Cl)c3C)no2)cc1OC,-2.5,i,0.83,.,.,100,-6
Cc1csc(C(=O)O)c1-n1cccc1,-0.9,i,0.75,-38,123,97,-10
CCC(C)(C)c1ccc(Oc2ccc(N)cc2)cc1,.,i,0.96,-73,38,116,0
Cn1c(N)c(C(=O)COC(=O)c2ccc([N+](=O)[O-])o2)c(=O)n(C)c1=O,.,i,0.95,.,.,101,.
# (cont.)
SMILES,GALR2 ag,HSV replic up,HSV replic up primary fold,Insulin prom inh,Insulin prom inh cell count,RGS16-Gao HTS,PKD1 kinase inh
CCOC(=O)C1=C(O)C(=O)NC(c2ccccc2)=C(OC2CCCCC2)C1,1.7,i,0.88,-29,66,118,-7
NC(=O)C1CCCN(C(=S)Nc2cccc3ccccc23)C1 (configuration not stated),-0.4,i,1.1,.,.,103,-8
COc1cc(CCCN2C(=S)NC[C@@H]2c2ccccc2)cc(OC)c1OC,.,i,0.77,.,.,103,4
Cc1ccc(-c2nn(-c3ccccc3)cc2C(=O)N2CCOCC2)cc1C,.,i,0.91,-5,108,102,1
COc1ccc(-c2c[n+]3c(n2-c2c(C)n(C)n(-c4ccccc4)c2=O)CCCCC3)cc1,.,i,0.92,.,.,101,-4
Cc1onc(-c2ccccc2Cl)c1C(=O)Nc1ccccc1C(N)=O,-0.5,i,0.84,.,.,95,-7
O=C(c1ccc(Cl)cc1)N1CCN(C(=O)c2ccco2)CC1,-2.8,i,0.98,-29,100,98,-10
CNC(=S)N1CCN(c2cccc(OC)c2)CC1,-2.2,i,0.97,4,96,96,-7
COc1ccc(C)cc1NC(=O)CSc1ccc(-c2cccnc2)nn1,.,i,1,.,.,104,-3
CCN(CC)S(=O)(=O)c1ccc(N2CCCC2)c(NS(=O)(=O)c2cccs2)c1,.,i,0.96,0,63,103,-8
CCc1nnc(NS(=O)(=O)c2ccc(N=Cc3c(C)[nH]n(-c4ccc(C)c(C)c4)c3=O)cc2)s1,-0.6,i,0.92,-200,145,85,-7
N#CCC(=O)Nc1ccc(C(=O)OCC(=O)Nc2ccccc2Sc2ccccc2)cc1,.,i,0.97,-41,136,101,-2
COc1ccc(Cc2nc3c4c(ncn3n2)Oc2c(ccc3ccccc23)C4c2ccc(OC)c(OC)c2)cc1 (configuration not stated),-0.2,i,1.1,10,104,106,1
Cc1ccc(/C=C/C(=O)O)cc1S(=O)(=O)N(C)CCO,-0.9,i,0.8,.,.,90,-3
C(#Cc1ccccc1)Cn1nnc2ccccc21,-0.9,i,1.1,-43,133,97,6
Cc1ccc(-c2c[n+](CC(=O)Nc3nc(-c4ccccc4)cs3)c3n2CCC3)cc1,.,i,0.76,.,.,96,.
C/C(=N\OCc1nc2ccccc2c(=O)n1/N=C/c1cc(C)cc([N+](=O)[O-])c1O)c1ccccc1,.,i,0.8,.,.,100,.
CCCCN(C)Cc1c(C)[nH]c2ccc(Cl)cc2c1=O,-0.1,i,0.77,.,.,104,11
Cn1c(Cn2c(=O)sc3ccccc32)nnc1SCC(=O)NCCc1ccccc1,-1.2,i,1.4,.,.,104,1
Cc1cc(NC(=O)CSc2nc3ccccc3c(=O)n2C2CCCC2)no1,0.9,i,0.42,3,114,108,-8
COC(=O)c1cn(C(=O)c2ccc(C)cc2C)c2ccccc12,.,i,0.87,.,.,103,10
O=C(O)CSC(C(=O)Nc1ccc(Br)cc1)c1ccccc1 (configuration not stated),.,i,0.96,.,.,97,-10
Cc1ccccc1NC(=O)CSc1nnc(C)c(=O)[nH]1,.,i,1,0,107,109,-6
CC1=NNC(=O)C1C(c1ccc(Cl)cc1)C(C#N)C#N (configuration not stated),.,i,0.85,.,.,98,.
Cc1cc(NC(=O)c2cc(-c3cccs3)on2)nn1Cc1ccc(Cl)cc1,-2.1,.,.,10,78,102,-7
# The list continues:
SMILES,GALR2 ag,HSV replic up,HSV replic up primary fold,Insulin prom inh,Insulin prom inh cell count,RGS16-Gao HTS,PKD1 kinase inh
COc1ccc(-c2cc(=O)oc3c(C)c(OC(=O)c4cccs4)ccc23)cc1,-0.1,i,0.82,.,.,100,0
Cc1nc2nc[nH]n2c(=O)c1CC(=O)O,-1.6,i,0.99,14,95,105,-5
CC(C)(C)c1cc(C(=O)NN)n(Cc2ccc(F)cc2)n1,.,i,1.1,.,.,102,.
CC(=O)c1c(C)[nH]c(C(=O)Nc2cccc(S(=O)(=O)N3CCOCC3)c2)c1C,-0.4,i,0.93,.,.,100,-8
Cc1noc(NS(=O)(=O)c2ccc(NC(=O)COc3ccc(Cl)cc3Cl)cc2)c1C,0.1,.,.,.,.,118,4
O=C(O)/C=C/C(=O)N(Cc1ccc2c(c1)OCO2)C1CC(=O)N(CCc2ccccc2)C1=O (configuration not stated),.,i,0.93,.,.,102,1
CCn1c(COc2ccccc2)nnc1SCC(=O)c1cccc([N+](=O)[O-])c1,-1.4,i,0.89,.,.,95,8
CCOC(=O)c1csc(NC(=O)c2ccccc2)n1,-2.5,i,0.93,.,.,107,-3
O=C1/C(=C/c2ccc(F)cc2)SC(=S)N1Nc1ncc(C(F)(F)F)cc1Cl,0.6,i,0.77,31,47,109,-3
CCCCCCC1CC(CCc2nc(=S)[nH][nH]2)C(=O)O1 (configuration not stated),-0.7,i,1.1,29,105,99,-2
COC(=O)c1ccccc1S(=O)(=O)NC(=O)c1ccccc1,-0.7,i,0.96,49,66,102,-2
C/C(=N\NC(=O)C1CC1)c1ccccc1O,.,i,0.83,.,.,107,-1
CSc1sc(-c2n[nH]c(=S)n2C)c2c1C=CCC2,.,i,0.92,.,.,113,.
COc1ccc(N2C(=O)CC(N3CCC(c4nc5ccccc5[nH]4)CC3)C2=O)cc1 (configuration not stated),-3.0,i,0.88,-14,74,106,-1
Cc1ccc(NC(=O)c2cccc(OCc3c(C)noc3C)c2)cc1S(=O)(=O)Nc1ccccc1Cl,0.6,i,0.91,-3,95,102,-1

# High-throughput results as filed in PubChem BioAssay.
